Screening data as filed in PubChem BioAssay.
FGF22 binding – binders of recombinant human FGF22 by thermal shift | Q9HCT0 | SYPRO orange fluorescence; percent of sucrose octasulfate shift, DMSO zero | calls only at 9.99 µM | 340,000 compounds, 1.5% hits | AID 651658;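 active = melting point raised past a set limit in the mean and every replicate; three in four hits are not shown here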
Target sequence (Q9HCT0 whole entry, looked up): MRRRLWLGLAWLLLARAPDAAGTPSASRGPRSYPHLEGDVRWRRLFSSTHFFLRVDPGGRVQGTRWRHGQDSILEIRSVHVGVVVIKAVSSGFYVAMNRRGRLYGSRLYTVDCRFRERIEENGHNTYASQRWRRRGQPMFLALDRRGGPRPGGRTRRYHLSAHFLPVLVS
HNF4A DNA FP – change in binding of human HNF4 alpha to DNA | P41235 | HNF4a-FITC DNA binding, fluorescence polarization, 1 h | activity change, % at 10 µM | 360,000 compounds, 0.3% hits | AID 1224865; in the data active = activity change above about 30%, passing the limit was not always enough;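 note: controls were the assay level and a saturating level of protein; the project sought stronger binding though the title names inhibitors; some compounds called inactive have numbers as strong as hits; positive values seem to mean higher polarization but the record does not say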
Target sequence (P41235 whole entry, looked up): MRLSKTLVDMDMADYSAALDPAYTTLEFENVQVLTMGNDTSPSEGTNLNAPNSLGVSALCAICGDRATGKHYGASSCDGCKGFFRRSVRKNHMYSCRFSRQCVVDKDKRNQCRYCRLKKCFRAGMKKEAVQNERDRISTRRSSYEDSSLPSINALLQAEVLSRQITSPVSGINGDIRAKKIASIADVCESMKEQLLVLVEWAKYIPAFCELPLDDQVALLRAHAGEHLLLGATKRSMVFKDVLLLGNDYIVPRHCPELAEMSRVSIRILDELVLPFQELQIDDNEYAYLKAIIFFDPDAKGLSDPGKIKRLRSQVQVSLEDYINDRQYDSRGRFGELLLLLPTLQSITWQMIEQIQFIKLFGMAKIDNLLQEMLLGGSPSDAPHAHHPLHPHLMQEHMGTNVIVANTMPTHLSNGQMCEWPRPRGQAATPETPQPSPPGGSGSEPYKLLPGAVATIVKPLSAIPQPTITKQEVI
B2AR ag – agonists of human beta-2 adrenergic receptor inducing internalization | P07550 | Am2.2-beta2AR cells, FAP receptor internalization, flow cytometry; reference of the scale not given here | response, % (test concentration not listed) | 340,000 compounds, 0.43% hits | AID 504454;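 active = response above a set limit, near 3 SD of response in nonfluorescent compounds, cut at about 42% in these data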;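 note: stock transfer was 100 nL into about 11 µL; a reference agonist was the positive control; negative values mostly stem from fluorescent compounds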
UCH37 inh – human UCH37 deubiquitinating enzyme inhibition | inhibition, % (no concentration beside the values) | Q9Y5K5 | 330,000 compounds, 0.33% hits | purified proteasome/UCH37, Ub-AMC cleavage fluorescence | AID 588478;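 active = mean of two replicates above 20%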;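 note: 0% = compound-free wells with enzyme and 100% = wells lacking proteasome; stock transfer was 100 nL into about 20 µL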
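Test system – human UCH37 enzyme supplied as purified proteasome complex · Incubation – 30 min preincubation with enzyme, 25 min cleavage at room temperature · Detection – AMC fluorescence from Ub-AMC cleavage, excitation 355 nm, emission 460 nm · Benchmarks – no-proteasome wells (full inhibition) and compound-free wells (no inhibition)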
Ecoli growth – E. coli growth inhibition | Escherichia coli growth, OD600, 23 h; stronger effect = lower value | OD600 absorbance (no concentration beside the values) | 330,000 compounds, 0.21% hits | AID 1053175;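 active = OD600 absorbance below the run mean of sample wells minus 3.6 SD, in any replicate, cut at about 0.56 in these data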;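 note: stock transfer was 300 nL into about 60 µL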
rRNA inh HTS – inhibitors of bacterial rRNA selective over humanized ribosomes. E. coli WT GFP vs humanized-ribosome RFP mutants, fluorescence, 24 h; stronger effect = lower value; DMSO median 0, no signal -100. AID 720706. 350,000 compounds, 1.6% hits. GFP signal change (wild-type ribosome), % (concentration not given with the values);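 active = significant combined selectivity score with lowered wild-type GFP, culture density cut under 30%, mutant RFP and density less affected; inactive = any of these conditions unmet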; note: one replicate is shown; some compounds called inactive have numbers as strong as hits
ALR inh – inhibitors of human sulfhydryl oxidase ALR; P55789; purified ALR, DTT oxidation, H2O2 HRP-luminol luminescence; inhibition, % (concentration not given with the values); 290,000 compounds, 3.8% hits; AID 485317;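 active = mean and each replicate at 75% or more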;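 note: stock transfer was 7.5 nL into about 7.5 µL; 0% = neutral wells and 100% = wells with inactivated enzyme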
Target sequence (P55789 whole entry, looked up): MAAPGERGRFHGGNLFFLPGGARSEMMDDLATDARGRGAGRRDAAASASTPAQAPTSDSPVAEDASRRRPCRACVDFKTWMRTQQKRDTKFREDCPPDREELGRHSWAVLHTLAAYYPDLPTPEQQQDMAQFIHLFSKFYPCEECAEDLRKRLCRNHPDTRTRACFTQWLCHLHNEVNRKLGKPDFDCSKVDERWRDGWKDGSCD
rRNA inh HTS OD600 – second read-out of rRNA inh HTS, no call of its own (marks repeat the call); OD600 change, %; measured here: OD600 growth;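 optical density of the mix in the first replicate; 0 = DMSO median and -100 = no signal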
rRNA inh HTS RFP – second read-out of rRNA inh HTS, no call of its own (marks repeat the call); RFP signal change, %; measured here: RFP humanized mutant strains;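 first replicate; 0 = DMSO median and -100 = no signal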
* hit, by the source's call; i = inactive; . = no result given; + = active, no number. A portion of the library. The share of hits here may be higher or lower than overall.

Value order – HNF4A DNA FP, rRNA inh HTS RFP, UCH37 inh, B2AR ag, Ecoli growth, ALR inh, FGF22 binding, rRNA inh HTS, rRNA inh HTS OD600
1) COC(=O)c1c(NC(=O)CN2CCN(c3ccccc3OC)CC2)c2cc(C)ccc2n1C
 : 0.3, ., -50.7, 5.8, 0.72, ., ., ., .
2) Cc1ccc(NC(=S)NC(=O)C2CCCC2)cc1C
 : -4.7, 0.0, 0.2, -2.1, 0.675, -12.8, i, -29.3, -47.9
3) O=c1[nH]c(-c2ccccn2)cc2ccccc12
 : -0.3, ., -330.8, -17.1, 0.639, 0.0, ., ., .
4) CCOC(=O)CNC(=O)Nc1cccc(Cl)c1C
 : 2.7, ., 1.1, 0.9, 0.706, 0.3, ., ., .
5) O=C(Cc1ccccc1)N1CCCC(c2nc(-c3cccs3)no2)C1 (stereo not drawn)
 : 1.1, ., 3.4, -9.5, 0.652, 0.5, ., ., .
6) O=C(Cn1cccn1)N1CCCC(N2CCN(c3cccc(C(F)(F)F)c3)CC2)C1 (stereo not drawn)
 : -0.8, -1.1, 1.1, 5.2, 0.65, ., i, 0.2, 5.9
7) O=C1C=C(Nc2cccnc2)c2ccccc2C1=O
 : -1.2, -5.4, ., 4.4, ., ., i, -15.7, -32.9
8) O=C(Nc1ccc([N+](=O)[O-])cc1)c1ccccc1
 : 0.2, 3.1, 3.9, 3.6, 0.658, -10.0, i, 26.7, 22.1
9) CSc1nc2cc(F)c(F)cc2n1C
 : -2.3, ., 3.6, 4.1, 0.656, -8.3, ., ., .
10) CC(=O)c1ccc(N2CCN(CC(=O)Nc3ccc4c(c3)OCCO4)CC2)cc1
 : -2.6, 2.7, 5.2, 3.7, 0.631, 1.2, i, 9.4, 10.9
11) CC(=O)Nc1ccc(-c2ccnc3c2CC(C(=O)NCC2CC2)O3)cc1 (stereo not drawn)
 : 1.9, 2.5, ., ., ., ., i, 7.7, -2.1
12) CC(C)C[C@@H](CNCC(=O)[C@H](Cc1c[nH]c2ccccc12)NC(=O)c1[nH]cnc1C(=O)N[C@H](CN)CC(C)C)NC(=O)c1nc[nH]c1C(=O)N[C@@H](CC(=O)O)C(=O)O
 : 0.2, 0.8, ., -7.3, ., ., i, 8.9, 22.6
13) CCCCN(C(C)=O)c1ccc2c(c1)C1CC2CCN1Cc1ccccc1 (stereo not drawn)
 : -3.4, 1.8, ., ., ., ., i, 12.3, 1.0
14) O=C(NCCC1=CCCCC1)c1cc(S(=O)(=O)N2CCCCC2)ccc1Cl
 : 2.9, -1.8, 4.8, 4.6, 0.689, 1.0, i, 4.2, 7.3
15) O=C(CSc1ccc(Cl)cc1)Nc1cc(-c2nc3ncccc3o2)ccc1Cl
 : ., -2.5, 0.6, ., 0.699, -9.1, i, 7.9, -1.8

Other entries
Value order – HNF4A DNA FP, rRNA inh HTS RFP, UCH37 inh, B2AR ag, Ecoli growth, ALR inh, FGF22 binding, rRNA inh HTS, rRNA inh HTS OD600
16) NS(=O)(=O)c1ccc(CCNS(=O)(=O)c2ccc3c(c2)NC(=O)CO3)cc1
 : -3.6, 1.7, 1.9, -0.6, 0.63, 2.5, i, 1.0, 1.9
17) CCOC(=O)c1ccccc1NC(=O)COC(=O)C1CCN(S(=O)(=O)c2ccccc2C(=O)OC)CC1
 : 1.2, 0.4, 3.6, 5.0, 0.731, -1.1, i, 4.9, 0.6
18) C[C@H](CO)N1C[C@H](C)[C@@H](CN(C)CC2CCCCC2)Oc2c(NC(=O)CCC(F)(F)F)cccc2C1=O
 : 0.3, 9.6, 0.7, 28.2, ., -17.3, i, 6.0, -6.0
19) CCN(c1cccc(C)c1)S(=O)(=O)c1ccc(-c2coc(C)n2)cc1
 : -2.2, -6.1, 0.8, -9.3, 0.653, 0.8, i, -9.5, -35.0
20) CC(=O)c1ccc(NC(=O)C(Cc2ccccc2)NC(=O)c2ccco2)cc1 (stereo not drawn)
 : 4.0, ., -1.1, 12.7, 0.691, 0.3, ., ., .
21) CCC1(C)Cc2ccccc2-c2[nH][nH]c(=O)c21 (stereo not drawn)
 : 3.3, 0.8, 0.0, 3.5, 0.666, 35.1, i, -5.4, -0.3
22) Cc1c(N(C(=O)c2ccccn2)C2(C(=O)NC3CCCCC3)CCCCC2)c(=O)n(-c2ccccc2)n1C
 : 1.1, -3.1, 2.0, 1.9, 0.658, -6.0, i, 4.7, 3.4
23) CC(=O)c1ccc(Sc2ccccn2)c([N+](=O)[O-])c1
 : 2.9, 1.8, 5.2, 1.7, 0.707, -3.4, i, 22.4, 9.4
24) O=C(Nc1ccc(F)cc1)c1ccc(S(=O)(=O)N2CCCC2)cc1
 : -1.3, -0.8, 4.1, 7.9, 0.659, -6.6, i, -8.2, -2.4
25) Cc1ccc(S(=O)(=O)N2CC(O)CC2C(=O)O)cc1 (stereo not drawn)
 : 1.9, -0.6, 6.0, -11.6, 0.628, 5.7, i, 16.1, 15.7
26) Cc1ccc(NC2=CC(=O)C(=O)c3ccccc32)c(C)c1
 : -1.0, ., 35.8*, 6.2, 0.67, -42.9, i, ., .
27) CSc1nsc(SCC(=O)Nc2ccccc2)n1
 : -0.7, -1.4, 2.7, -5.0, 0.685, -0.3, i, -5.7, -28.1
28) CCn1c(C)nnc1SCC(=O)Nc1cccc(C(F)(F)F)c1
 : -0.7, 1.8, 1.0, -2.2, 0.646, -4.0, i, 13.8, 21.1
29) COc1ccc(CN2C(=O)c3ccccc3C2c2nnnn2-c2ccc3c(c2)OCCO3)cc1OC (stereo not drawn)
 : -1.5, 8.4, ., ., ., ., i, 3.7, 2.3
30) COc1ccc(NC(=O)CN(C)C(=O)c2cn(-c3ccccc3)nc2-c2ccc(Cl)cc2)cc1
 : 4.4, 6.8, 0.0, -4.0, 0.624, -10.3, i, -5.3, -21.1

Next section:
Value order – HNF4A DNA FP, rRNA inh HTS RFP, UCH37 inh, B2AR ag, Ecoli growth, ALR inh, FGF22 binding, rRNA inh HTS, rRNA inh HTS OD600
31) Cc1ccc(S(=O)(=O)N(C)C)cc1NC(=O)C(C)NC(C)c1cccs1 (stereo not drawn)
 : 2.2, -1.2, 1.3, -6.6, 0.61, -0.2, i, 2.2, -6.6
32) Cc1nc(SCC(=O)Nc2cccc(C(=O)O)c2)n[nH]1
 : -2.4, -0.6, 0.7, 4.6, 0.698, -6.9, i, 8.0, 15.2
33) O=C(c1ccco1)N1CCCN(Cc2nc(-c3cccs3)no2)CC1
 : -0.5, 2.8, 2.4, -10.4, 0.647, ., i, 20.1, 9.1
34) Fc1ccc(Nc2nc(NCc3cccs3)nc3ccsc23)cc1
 : -1.0, -18.2, ., ., ., ., i, -54.8, -74.5
35) COC(=O)c1ccc(Nc2cc(C)nc(-c3ccccc3O)n2)cc1
 : 37.2*, ., -8.6, -0.4, 0.739, -4.2, ., ., .
36) Cc1cc(Br)ccc1NC(=O)CN(C)C(=O)C1CCN(c2ncnc3sc(C)c(C)c23)CC1
 : -2.1, 12.1, 1.9, 23.3, 0.639, ., i, -10.2, -41.5
37) Cc1cccc(C(=O)O/N=C2/CC3CCC2(C)C3(C)C)c1 (stereo not drawn)
 : -2.2, ., ., -6.7, ., -1.9, ., ., .
38) O=C(O/N=C(\c1ccccc1)c1ccccn1)c1cccc2ccccc12
 : 3.1, ., ., 0.5, ., -0.6, ., ., .
39) Cc1cccc(N2C(=O)c3ccc(C(=O)Nc4c[nH]c(=O)[nH]c4=O)cc3C2=O)c1
 : -1.4, 0.2, 0.9, 1.5, 0.733, -14.5, i, 0.4, -4.5
40) Cc1cc(Br)ccc1NC(=S)N1CCOCC1
 : 6.0, -2.0, 0.5, -12.8, 0.641, 0.3, ., -10.8, -3.6
41) Clc1cc(Br)ccc1NCc1cccnc1
 : 6.1, -6.9, 2.4, 16.5, 0.606, 5.1, i, -17.9, -16.6
42) CC1(c2ccccc2Cl)NC(=O)N(CC(=O)NCc2ccc3c(c2)OCO3)C1=O (stereo not drawn)
 : -2.3, ., -0.3, 13.7, 0.6, ., i, ., .
43) CC(=O)/C(C#N)=C1\NC(=O)C(Cc2ccccc2C)S1 (stereo not drawn)
 : 3.0, 3.8*, 9.9, -7.2, 0.655, 18.1, i, -29.8*, -12.9*
44) CCN(CC)C(=O)CSc1nc2ccc(NC(=O)CSc3nccn3C)cc2s1
 : 2.8, ., 0.2, -0.8, 0.676, 98.8*, ., ., .
45) Cn1c(-c2ccc3c(c2)OCO3)cnc1NCc1cccc(O)c1
 : 4.2, 2.6, 0.9, 1.7, 0.637, 87.8*, i, 12.8, 7.3

Remaining list, next part:
Value order – HNF4A DNA FP, rRNA inh HTS RFP, UCH37 inh, B2AR ag, Ecoli growth, ALR inh, FGF22 binding, rRNA inh HTS, rRNA inh HTS OD600
46) Cc1ccccc1C(=O)NC1CC(C)(C)NC(C)(C)C1
 : -0.3, ., -6.5, -3.9, 0.748, -1.9, ., ., .
47) Cc1ccc(N=Cc2cc3c(cc2[N+](=O)[O-])OCO3)cc1[N+](=O)[O-]
 : 3.0, -2.4, 3.3, 8.9, 0.63, -15.2, i, -7.1, 4.5
48) CCCn1nnnc1NCc1ccc(F)cc1
 : 3.3, 0.7, 0.0, 0.5, 0.673, -2.9, i, 3.4, 10.9
49) CN(C(=O)Cc1c(C(=O)O)n(C)c2ccccc12)c1cccc(C(F)(F)F)c1
 : -2.1, 0.4, 3.4, -0.1, 0.654, -1.8, i, -2.2, 3.7
50) N#CC(C#N)=C1C=C2C=C(N3CCOCC3)CCC2CC1 (stereo not drawn)
 : -111.7, 11.1, 11.0, ., 0.703, ., i, 54.4, 3.8
51) CC(=O)c1cccc(NC(=O)NCCS(C)=O)c1 (stereo not drawn)
 : 5.6, -6.3, 1.6, -2.5, 0.73, 4.7, i, 10.4, 2.1
52) Cc1ccnc(SCc2cc(=O)c(OC(=O)c3ccc(S(=O)(=O)N(C)C)cc3)co2)n1
 : 1.8, 2.0, 3.3, -3.4, 0.647, 40.9, i, 9.4, 1.9
53) COc1ccc(C(=O)NCC(c2ccco2)N2CCCCC2)cc1S(=O)(=O)Nc1ccc(C)cc1 (stereo not drawn)
 : 3.1, 22.9, 0.2, 6.8, 0.714, ., i, 2.3, 3.6
54) O=C(COC(=O)c1ccc(Br)o1)NC1CCCc2ccccc21 (stereo not drawn)
 : -4.0, -1.4, 1.1, -8.7, 0.66, -2.3, i, -2.8, -3.9
55) CCCNC(=O)c1cc(C2CCCCN2S(=O)(=O)c2ccc(OC)cc2)on1 (stereo not drawn)
 : 2.2, 4.1, ., ., ., ., i, 1.0, 0.8
56) COc1ccc(NC(=O)/C(C#N)=C/c2ccc(OCc3ccccc3F)cc2)cc1
 : 1.6, ., 0.2, 1.5, ., -0.9, ., ., .
57) Cc1ccc(S(=O)(=O)N2CCC(C(=O)N3CCC3)CC2)cc1
 : 1.0, -0.8, -3.2, 1.1, 0.666, 14.5, i, 6.2, 6.9
58) CCOC(=O)N1CCN(C(=O)C2CCN(C(=O)c3ccccc3C)CC2)CC1
 : -5.2, -1.7, ., 48.7*, ., ., +, 9.2, 4.8
59) COc1ccc(-c2noc(CN3C(=O)c4ccccc4C3=O)n2)cc1
 : 4.1, ., 0.1, -4.2, 0.734, -25.1, ., ., .
60) Cc1nc2cc(-c3ccccc3)nn2c(C)c1CCC(=O)N1CCN(c2ccccc2)CC1
 : 0.7, 7.7, -6.8, 15.6, 0.714, -0.3, i, 2.0, 11.3
